Source: PubChem (National Center for Advancing Translational Sciences (NCATS))
PINK1 modulator: changes PINK1 expression; PINK1 immunofluorescence, high-content cytometry, 24 h; Potency, µM (highest dose often 76.6 µM), inactives show at the top dose activation (PINK1 increase), actives largely listed as activators; 0.2% of 410,000 active; active = well fitted activation curve with a large enough effect; inconclusive = small, poorly fitted or top-dose-only effect; inactive = flat fitted curve, though single readings scatter; cell line not stated here;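 further: potency means the concentration at half of the fitted maximal effect; % of control where 0% means no effect; nearly all actives have a fitted effect of over 65% in size; a mitochondrial uncoupler was the plate control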
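PINK1 protein, normally rapidly degraded, was detected by immunofluorescence after 24 hour compound treatment of a stable cell line. Titration data (5 concentrations) came from laser-scanning cytometry, with CCCP-treated wells as controls.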
D2 ag: human D2 receptor agonism in beta-arrestin assay; 0.084% of 360,000 active; activation, % (no concentration beside the values); P14416; DiscoveRx PathHunter D2 beta-arrestin, luminescence, 90 min; 100% = 57 uM dopamine signal; in the data active = activation above about 40%; inconclusive = about 15% to 40%; inactive = below about 15%; further: compound concentration not given in the record; the text of the record calls up to 30% inactive
Target sequence (P14416 whole entry, looked up): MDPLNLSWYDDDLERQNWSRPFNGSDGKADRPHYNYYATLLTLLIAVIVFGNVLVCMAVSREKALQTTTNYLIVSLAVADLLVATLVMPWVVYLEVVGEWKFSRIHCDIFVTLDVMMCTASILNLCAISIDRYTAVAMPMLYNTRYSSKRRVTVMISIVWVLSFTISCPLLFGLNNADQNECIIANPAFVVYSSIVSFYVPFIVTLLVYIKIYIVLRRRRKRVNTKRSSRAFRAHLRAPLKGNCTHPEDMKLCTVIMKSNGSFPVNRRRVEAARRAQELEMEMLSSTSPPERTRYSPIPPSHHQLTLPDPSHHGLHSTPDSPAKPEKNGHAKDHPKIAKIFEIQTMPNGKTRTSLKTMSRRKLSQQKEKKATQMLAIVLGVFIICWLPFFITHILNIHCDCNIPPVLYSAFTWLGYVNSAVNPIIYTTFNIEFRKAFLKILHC
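Agonist mode: compounds alone added to overnight-plated D2 PathHunter cells for 90 min at 37 C, with 57 uM final dopamine (EC100) defining full response. Beta-arrestin recruitment detected by chemiluminescent reagent, read after 1 h at ambient temperature.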
gsp agonist: gsp mutant agonism. gsp mutant cells, cAMP HTRF, 30 min; control for the full effect not named in the record. Potency, µM (doses to about 76.9 µM), inactives show at the highest dose activation (cAMP increase), usual class: activators. 0.13% of 340,000 active. AID 624287; active = well fitted activation curve with a large enough effect; inconclusive = small, poorly fitted or top-dose-only effect, or another doubt; inactive = no such curve, though single readings can be large or run the other way; cell line not stated here;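 further: phosphodiesterase inhibitor Ro 20-1724 added with compounds to block cAMP breakdown; potency means the concentration at half of the fitted maximal effect; nearly all actives have a fitted effect of over 60% in size; about a fifth of the inactives were tested at one dose only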
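Cells in DMEM/10% FBS with G418 were pretreated with compounds in DMSO plus […] (300 uM stock) for 30 min at 37C. cAMP was measured by HTRF (cAMP-d2 plus anti-cAMP antibody-K) after 30 min at room temperature.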
Sfp PPTase inh: blocks B. subtilis Sfp PPTase activity | Q9F4F7 | Potency, µM, inactives show max response, negative = inhibition, most hits filed as inhibitors | Biochemical Sfp PPTase activity, qHTS | 3.5% of 310,000 active | AID 1490; active means well fitted inhibition curve with a large enough effect; inconclusive means small, poorly fitted or top-dose-only effect, or another doubt; inactive means no such curve, though single readings can be large or run the other way;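 further: the enzyme is Sfp with the accession as filed and its product quenches rhodamine fluorescence; potency means the concentration at half of the fitted maximal effect; 0% = enzyme reaction without inhibitor and -100% = no enzyme wells; top concentration of the series not given in the record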
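With Hepes-Na pH 7.6 buffer containing 10 mM MgCl2, Sfp (15 nM) modified BHQ-2-YbbR (12.5 uM) using rhodamine-CoA (5 uM). Two reads 30 minutes apart at 525/598 nm yielded each well's rate.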
gsp antagonist: antagonizes gsp, the McCune-Albright syndrome mutation. AID 624288. gsp-mutant cells, cAMP HTRF, 30 min; control for the full effect not named in the record. Potency, µM (top dose mostly 76.9 µM), inactives show at the highest dose activity change, negative = inhibition, hits mostly inhibitors. 0.4% of 340,000 active; active = falling curve of any shape with a large fitted effect; inconclusive = falling curve, mostly with a smaller effect; inactive = flat or rising curve; cell line not stated here;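 further: intracellular cAMP measured with PDE inhibitor Ro 20-1724 present during compound exposure; potency means the concentration at half of the fitted maximal effect; on the % scale 0 is the no-effect control and ±100 the full control effect; nearly all actives have a fitted effect of over 65% in size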
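G418-selected cells were plated in DMEM/10% FBS for 16-24 h at 37C, then treated with compounds plus the PDE inhibitor […] (300 uM solution added) for 30 min at 37C. Intracellular cAMP was measured by HTRF after 30 min lysis at room temperature.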
Menin MLL FP FL: displaces fluorescein MLL peptide from human menin | 290,000 tested, under 10 active | AID 1766 | FP activity change, % at 61.4 µM | Fluorescence polarization, fluorescein-MLL peptide displacement from menin; inconclusive = falling polarisation curve, or a change in total fluorescence; inactive = total fluorescence flat and polarisation flat or rising; no compound was filed as active; the % refers to the polarisation; negative = inhibition;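 further: % of control where 0% means no effect; inhibitors lower the polarisation; unlabelled MLL peptide was the positive control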
ClpP mod: qHTS Assay for Activators of ClpP; ATP-dependent Clp protease proteolytic subunit (Bacillus subtilis (strain 168)), P80244; AID 651965, 2013; Potency, µM (titrated, usually from 57.5 µM), inactives show top-dose activity change, negative = active; purified B. subtilis ClpP, FRET peptide cleavage, 20 min; 1.9% of 340,000 active; active = well fitted falling curve with a large enough effect; inconclusive = small, poorly fitted or top-dose-only effect; inactive = no such curve, though single readings can be large or run the other way; further: potency means the concentration at half of the fitted maximal effect; the source files actives as falling curves though it sought activators and does not explain the sign; nearly all actives have a fitted effect of over 65% in size; many hits overshoot -100%
Target sequence (P80244 whole entry, looked up): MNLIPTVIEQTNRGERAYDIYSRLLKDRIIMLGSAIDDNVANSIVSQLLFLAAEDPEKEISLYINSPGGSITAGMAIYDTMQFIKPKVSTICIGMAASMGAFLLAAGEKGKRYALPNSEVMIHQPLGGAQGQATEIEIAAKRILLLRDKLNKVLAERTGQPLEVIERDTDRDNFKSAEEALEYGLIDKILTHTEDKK
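ClpP 10 microg/mL final, pH 8 Tris/KCl buffer with BSA, glycerol, Tween-20; compound pinned in; FRET-FV substrate; RT 20 min; Ex320/Em430; ΔFRET vs ADEP 5.8 microM, DMSO, no enzyme.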
The depositor's hits bear a star; ? = inconclusive; / = no result given; & = joins results of further samples; [ ] = dose if it differs, or a comment.

SMILES	PINK1 modulator	D2 ag	gsp agonist	Sfp PPTase inh	gsp antagonist	Menin MLL FP FL	ClpP mod
COc1ccc(C(=O)COC(=O)CCN2C(=O)C3C4CC(C(Br)C4Br)C3C2=O)cc1 (centres undefined)	-0.5%	-3.8	18%	7%	?	9.0	1.1%
COc1ccccc1-c1c(C)oc2c(CN3CCCCC3C)c(O)ccc2c1=O (centres undefined)	-0.7%	0.3	11%[15.4 µM]	10%	2%	-0.3	-3.2%
CCc1nnc(NS(=O)(=O)c2ccc(NC(=O)C(c3ccccc3)c3ccccc3)cc2)s1	0.6%	-6.4	12%	/	-10%	/	/
COc1ccc(C(=O)NCC(=O)N2CCN(C(=O)c3ccco3)CC2)cc1[N+](=O)[O-]	-1.4%	-0.1	?	/	-1%	/	/
O=C(NCc1ccccc1Br)C1CCCO1 (centres undefined)	0.0%	-1.9	6%	2%	10%	-1.1	1.1%
O=C(O)C1C2C=CC(C2)C1C(=O)NCc1cccc(Cl)c1 (centres undefined)	-0.2%	-0.8	4%[15.4 µM]	17%	11%	-0.2	?
O=C(Nc1nc(-c2cccnc2)cs1)c1ccccc1Cl	-0.2%	-2.3	1%[15.4 µM]	7%	1%	2.5	/
O=C(c1cc2cc(Cl)ccc2[nH]1)N1CCCCC1	-0.7%	-0.3	-2%	8%	-2%	-1.6	-3.3%
C[C@H](NC(=O)OC(C)(C)C)c1nnc(SCC(=O)c2ccc(Cl)cc2)o1	0.4%	-1.0	2%	1%	-9%	4.3	-0.4%
Cn1c(Cn2c(=O)sc3ccccc32)nnc1SCc1cccnc1	-0.7%	0.0	-47%[inhibitor]	25%	1%	5.1	-0.1%
CC(=NO)c1ccc2c(c1)Cc1cc([N+](=O)[O-])ccc1-2	-5.1%	?	-43%[inhibitor]	/	-12%	/	-2.2%
Brc1cccc(-c2nnc(SCc3ccon3)n2-c2ccccc2)c1	-0.3%	1.2	?	9%	-18%	-0.5	0.8%
O=CNc1cc(-c2cccc(F)c2)cn2c(-c3ccc(F)c(Cl)c3)cnc12	0.4%	4.4	/	/	/	/	?
COc1ccc(OC)c(CN(CCN2CCOCC2)C(=O)Nc2cccc(Cl)c2)c1	-2.1%	-1.0	-37%[inhibitor]	-2%	-16%	-0.7	-0.8%
C/C=C/c1ccc(OCCN2C(=O)NC(C)(C)C2=O)c(OC)c1	/	-3.2	2%	-16%	3%	0.4	-4.7%
CC(C)CNc1nc(Oc2ccc(=O)[nH]n2)nc(N(C)C)n1	-3.4%[38.3 µM]	-3.7	-20%	7%	3%	0.3	0.7%
CCN(CC)S(=O)(=O)c1cc(NS(=O)(=O)c2cccc(Cl)c2Cl)ccc1C	-0.2%	0.1	-2%	1%	-1%	-0.7	-2.8%
Cc1ccc(C2C3=C(CC(C)(C)CC3=O)NC3=C2C(=O)c2ccccc23)cc1 (centres undefined)	4.8%	-5.1	-20%	-17%	-6%	1.2	9.4%
CCN(Cc1ccc(OC)c(F)c1)C(C)C(=O)Nc1ccc(S(=O)(=O)N2CCCC2)cc1 (centres undefined)	-1.5%	-3.7	-23%	/	-1%	/	-6.7%
COc1cccc(C(=O)NCCS(=O)(=O)NCCc2ccccc2)c1	1.8%	-2.2	-14%	/	-2%	/	-10%
O=C(COC(=O)CCCN1C(=O)c2ccccc2C1=O)Nc1cc(Cl)cc(Cl)c1	8.3%	-3.6	9%	5%	5%	3.3	0.2%
COc1ccc(OC)c(NC(=O)CCn2cccc2)c1	-1.6%	-3.4	8%	10%	-3%	-3.5	-0.7%
O=C(Cn1cnnn1)OCC(=O)c1ccc(Cl)s1	/	-2.7	?	-4%	11%	3.9	-7.0%
O=C(NCc1ccccc1)N(Cc1cc2cc3c(cc2[nH]c1=O)OCCO3)CC1CCCO1 (centres undefined)	-0.5%	-2.3	3%	3%	-4%	1.9	?
CC(=O)N1CCN(S(=O)(=O)c2cccc(C(=O)N(C)Cc3ccc(C)o3)c2)CC1	0.4%	-1.7	-27%	/	2%	/	-2.1%
CCOc1ccc(/C(CC)=N/NC(=O)C2(C)CC2(Br)Br)cc1 (centres undefined)	5.5%	6.0	-11%[15.4 µM]	5%	1%	3.3	0.7%
O=C(CSc1nnnn1C1CCCCC1)NCc1ccccc1	0.7%	-2.7	-7%	11%	4%	2.9	-0.5%
CC(C)c1nnc(NC(=O)CCC(=O)NCCc2ccccc2)s1	2.0%	-2.2	-7%[15.4 µM]	12%	1%	1.0	0.6%
O=C(NCCCO)c1ccc(CSc2nc3ccccc3[nH]2)cc1	2.8%	-0.1	-22%	1%	10%	2.3	/
CCc1noc(C)c1C(=O)Nc1sc(C(=O)N(C)C)c(C)c1C(=O)OC	-1.1%	-2.1	?	5%	-6%	-1.1	1.1%
S=c1[nH]nc(Cc2cccs2)n1-c1ccccc1Cl	-0.9%	-4.3	-3%[15.4 µM]	6%	5%	-1.1	/
OCC1N=C(c2ccccn2)OC1c1ccccc1 (centres undefined)	-1.2%[38.3 µM]	4.4	-13%	12%	7%	1.3	-0.4%
CCOC(=O)CNc1nc2ccccc2n2c(C)nnc12	0.7%&1.2%	-0.2	21%	20%	-2%	0.2	-0.1%
Cc1c(NC(=O)C(C)OC(=O)/C=C/c2ccccc2)c(=O)n(-c2ccccc2)n1C (centres undefined)	2.7%	0.3	8%	28%	8%	4.6	0.1%
CCOc1ccc(NC(=O)Nc2ccc3c(c2)N(C)C(=O)CS3)cc1	20%	0.1	-41%[inhibitor]	-4%	-21%	2.5	0.1%
Cc1ccccc1C(=O)Nc1ccnn1C1CCN(CC2CC=CCC2)CC1 (centres undefined)	-1.6%	-2.3	-62%[inhibitor]	-2%	-8%	/	-3.6%
COc1ccc(NC(=O)c2cccc(N3C(=O)c4cccc([N+](=O)[O-])c4C3=O)c2)cc1	-0.5%	-0.6	-2%	8%	?	/	0.0%
Cc1ccc(NC(=O)CN(C)CC(=O)Nc2ccc(F)c(Cl)c2)cc1	4.8%	3.2	-14%	-22%	9%	-1.2	3.1%
CCCCN1C(=O)C(O)(CC(=O)c2c(C)n[nH]c2C)c2cc(Br)ccc21 (centres undefined)	-4.2%[38.3 µM]	-0.2	?	0%	-4%	0.7	-1.5%
Cc1ccc(NC(=O)N2CCC(C(=O)c3ccc(F)cc3)CC2)cc1	6.3%	0.7	-31%[inhibitor]	17%	-8%	-3.5	/
CC(C)CCN(C(=O)CCSc1ccc(F)cc1)c1c(N)n(Cc2ccccc2)c(=O)[nH]c1=O	4.2%	-3.7	-12%	/	-1%	/	-2.0%
CCCN(CCC)CCNC(=O)C1CCN(S(=O)(=O)c2cccc3nsnc23)CC1	0.1%	6.0	16%	11%	14%	1.7	-2.1%
CC(/C=C/c1ccccc1)=N/NC(=O)CCC(=O)Nc1ccccc1C	6.8%	-2.4	-18%	-8%	-5%	-1.9	-1.3%
CCN(CC)C(=O)C1CCCN(Cc2cccc(Cl)c2)C1 (centres undefined)	2.7%	-4.1	/	/	/	/	-1.9%
O=C(c1cccc(Cl)c1)N1CCN(c2ccc3c(c2)C2CC3CCN2C(=O)OCc2ccccc2)CC1 (centres undefined)	-1.0%	2.9	/	/	/	/	-2.3%
O=C(Cc1ccc(Br)cc1)NCc1ccccc1	4.3%	-5.8	0%[15.4 µM]	13%	20%	-3.1	1.1%
COc1ccc2c(c1)C(=O)C(=O)N2CCS(=O)(=O)c1ccccc1	2.2%	-21	-1%	14%	26%	/	-0.4%
Cc1nnc(NC(=O)C2CCN(c3nnnn3-c3ccccc3)CC2)s1	6.0%[38.3 µM]	-0.6	-71%[inhibitor]	17%	-7%	2.4	1.2%
COc1cccc(CN2CCN(Cc3ccco3)CC2)c1	-1.6%	-1.3	-12%	45µM*	19%	1.9	1.0%
O=C(Nc1cccc(C(F)(F)F)c1)c1cccnc1NCCc1ccccc1	-2.5%	1.2	-30%	12%	-10%	-0.6	28µM*
Cc1c(S(=O)(=O)Nc2ccc(Br)cc2)c(=O)n(C)c(=O)n1C	-0.8%	-4.7	?	21%	5%	5.3	0.5%
CCCCNC(=O)N1CCCN(c2ccc(C#N)cn2)CC1	-1.6%	9.5	6%	9%	0%	7.7	-9.1%
Cc1cc(C(=O)O)n(C(C)(C)C)n1	-1.7%	-2.7	8%[15.4 µM]	8%	7%	0.7	-0.9%
CC1CCC2(CC1)NC(=O)N(CC(=O)NCc1ccc3c(c1)OCO3)C2=O (centres undefined)	1.1%	-5.6	?	12%	3%	1.3	-1.3%
CCOC(=O)c1ccc(NC(=O)CSc2nnc(C3CC3)n2CC)cc1	0.2%	-4.7	7%	16%	-10%	0.6	-3.0%
COc1ccc(CNC(=O)c2cnccn2)cc1	18%[38.3 µM]	-0.6	-29%	12%	8%	-0.4	0.6%
COc1ccc(C(C(=O)NCc2ccccc2)N(Cc2ccc3c(c2)OCO3)C(=O)c2cnccn2)cc1 (centres undefined)	-1.2%[38.3 µM]	0.0	-30%[inhibitor]	13%	-5%	2.7	0.6%
O=C(Cn1ncc2c1-c1ccccc1OC2)Nc1cccc(Cl)c1	1.9%	-0.6	3%	-7%	-15%	2.7	-0.8%
CCN(Cc1cc2cc(C)ccc2[nH]c1=O)C(=O)c1cccc(OC)c1	-2.0%	-4.0	4%	18%	-17%	1.7	?
COCC(=O)N1CCC2(CC1)CN(Cc1ccc(C#N)cc1)C2	-0.6%	/	/	16%	/	-4.7	/
(listing goes on)
SMILES	PINK1 modulator	D2 ag	gsp agonist	Sfp PPTase inh	gsp antagonist	Menin MLL FP FL	ClpP mod
Cn1nccc1C(=O)N1CCN(c2ccccc2F)CC1	0.5%	-0.4	1%	4%	5%	/	-1.5%
COc1cc(C(=O)Oc2ccc(C(=S)N3CCOCC3)cc2)cc(OC)c1OC	0.6%	-3.2	3%	-16%	-6%	-2.2	0.1%
Cn1nnnc1SCC(=O)NCc1ccc2c(c1)OCO2	0.9%	-1.4	2%	2%	2%	1.4	0.5%
CCOC(=O)C/C(N)=N/NC(=O)c1ccc(Cl)cc1Cl	-1.5%	-5.3	-2%[15.4 µM]	13%	/	1.2	/
